Source: PubChem BioAssay
NOMO-1 viab: STK33 inhibitor candidate reducing NOMO-1 cell viability. NOMO-1 AML viability, CellTiter-Glo luminescence, 72 h. inhibition, % (no concentration beside the values). 37,000 compounds, 7.5% hits. AID 2330;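 active = most replicates above 80%; inconclusive = exactly half above 80%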;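 note: wells of about 30 µL received 25 nL stock; 0% = median of vehicle wells and 100% = reference inhibitor level; the first replicate is given; inactives centre near 10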
* hit, by the source's call; ? = inconclusive. An excerpt (hit frequency here may not be typical).

Structure,NOMO-1 viab
COc1ccccc1N1CCN(CCCCN2C(=O)c3ccccc3C2=O)CC1,25
C[C@@H]1CN([C@H](C)CO)C(=O)Cc2cc(NC(=O)Nc3ccc(F)cc3)ccc2O[C@H]1CN(C)Cc1ccc(Cl)c(Cl)c1,94*
COc1ccc(Cl)cc1NC(=O)CN(c1cc([N+](=O)[O-])ccc1C)S(C)(=O)=O,20
Cc1cc(C(=O)Nc2cccc3c2O[C@@H](CN(C)S(=O)(=O)c2ccc(Cl)cc2)[C@@H](C)CN([C@@H](C)CO)C3=O)n(C)n1,-6
CCC(=O)OCC(=O)C1(OC(=O)CC)[C@H](C)C[C@H]2[C@H]3[C@H]([C@@H](O)C[C@@]21C)[C@@]1(C)C=CC(=O)C=C1C[C@H]3Cl (stereo partly specified),0
C[C@H]1CN([C@@H](C)CO)C(=O)Cc2cc(NC(=O)Nc3ccc(F)cc3)ccc2O[C@H]1CN(C)CC1CCCCC1,105*
COc1ccc(CN(C)C[C@H]2Oc3c(NC(=O)C4CCCCC4)cccc3C(=O)N([C@@H](C)CO)C[C@@H]2C)cc1,16
Cc1ccc(S(=O)(=O)N(C)C[C@H]2Oc3c(NC(=O)c4nc5ccccc5s4)cccc3C(=O)N([C@H](C)CO)C[C@H]2C)cc1,4
C[C@@H]1CN([C@@H](C)CO)C(=O)c2cccc(NS(=O)(=O)c3cn(C)cn3)c2O[C@H]1CN(C)S(=O)(=O)c1ccc(Cl)cc1,9
C[C@@H]1CN([C@H](C)CO)C(=O)Cc2cc(NS(=O)(=O)c3cccs3)ccc2O[C@@H]1CN(C)Cc1ccc(Cl)c(Cl)c1,37
NC(=O)CN(Cc1ccc(F)cc1)S(=O)(=O)c1ccc(Cl)cc1,4
Cc1noc(C)c1S(=O)(=O)N(C)C[C@H]1Oc2ccc(NC(=O)NC(C)C)cc2CC(=O)N([C@H](C)CO)C[C@H]1C,-5
Cn1c(SCC(=O)Nc2ccccc2C(F)(F)F)nnc1-c1cccc(N)c1,-15
O=C1C(=O)N(CCN2CCOCC2)C(c2ccc(Cl)cc2)C1C(=O)c1ccco1 (stereo unspecified),-1
CC(C)NC(=O)N(C)C[C@@H]1Oc2ccc(NC(=O)Nc3cccc4ccccc34)cc2C(=O)N([C@H](C)CO)C[C@H]1C,-3
C[C@@H]1CCCCO[C@@H](CN(C)S(=O)(=O)c2ccccc2)[C@@H](C)CN([C@H](C)CO)C(=O)c2cc(NS(=O)(=O)c3ccc(Cl)cc3)ccc2O1,?
Cn1c(SCC(N)=O)nnc1-c1ccc(C(C)(C)C)cc1,7
CCn1c(SCC(=O)N2CCN(c3ccccc3)CC2)nnc1-c1cc2cc(Cl)ccc2o1,37
C[C@H](CO)N1C[C@H](C)[C@H](CN(C)Cc2ccc(C(F)(F)F)cc2)Oc2ccc(NS(=O)(=O)c3cn(C)cn3)cc2C1=O,3
O=C1NC(=O)C(=Cc2ccc(-c3ccccc3)o2)C(=O)N1,126*
C[C@H]1CN([C@@H](C)CO)C(=O)c2cc(NC(=O)CCC(F)(F)F)ccc2O[C@@H]1CN(C)Cc1ccc(Oc2ccccc2)cc1,22
CC(C(=O)Nc1cccc2ccccc12)N(c1ccc(Cl)cc1)S(C)(=O)=O (stereo unspecified),14
Cc1noc(C)c1NC(=O)N(C)C[C@@H]1Oc2ccc(NC(=O)C3CC3)cc2CC(=O)N([C@H](C)CO)C[C@H]1C,33
Cc1noc(C)c1S(=O)(=O)Nc1ccc2c(c1)C(=O)N([C@@H](C)CO)C[C@H](C)[C@@H](CN(C)C(=O)Nc1ccc3c(c1)OCO3)O2,-24
CN(C)c1nc2ccccc2c(=O)s1,4

Taken from above:
`Cc1noc(C)c1NC(=O)N(C)C[C@@H]1Oc2ccc(NC(=O)C3CC3)cc2CC(=O)N([C@H](C)CO)C[C@H]1C` in NOMO-1 viab is listed with 33
`Cc1noc(C)c1S(=O)(=O)Nc1ccc2c(c1)C(=O)N([C@@H](C)CO)C[C@H](C)[C@@H](CN(C)C(=O)Nc1ccc3c(c1)OCO3)O2` in NOMO-1 viab is listed with -24
`Cn1c(SCC(N)=O)nnc1-c1ccc(C(C)(C)C)cc1` in NOMO-1 viab is listed with 7
`Cc1noc(C)c1S(=O)(=O)N(C)C[C@H]1Oc2ccc(NC(=O)NC(C)C)cc2CC(=O)N([C@H](C)CO)C[C@H]1C` in NOMO-1 viab is listed with -5
`C[C@@H]1CN([C@H](C)CO)C(=O)Cc2cc(NS(=O)(=O)c3cccs3)ccc2O[C@@H]1CN(C)Cc1ccc(Cl)c(Cl)c1` in NOMO-1 viab is listed with 37
`CN(C)c1nc2ccccc2c(=O)s1` in NOMO-1 viab is listed with 4
`CC(C(=O)Nc1cccc2ccccc12)N(c1ccc(Cl)cc1)S(C)(=O)=O` (stereo unspecified) in NOMO-1 viab is listed with 14

The listing picks up, starting three compounds before the break.
Structure,NOMO-1 viab
Cc1noc(C)c1NC(=O)N(C)C[C@@H]1Oc2ccc(NC(=O)C3CC3)cc2CC(=O)N([C@H](C)CO)C[C@H]1C,33
Cc1noc(C)c1S(=O)(=O)Nc1ccc2c(c1)C(=O)N([C@@H](C)CO)C[C@H](C)[C@@H](CN(C)C(=O)Nc1ccc3c(c1)OCO3)O2,-24
CN(C)c1nc2ccccc2c(=O)s1,4
O=C(CN1C(=O)c2ccccc2C1=O)Oc1c(-c2ccccc2)oc2ccccc2c1=O,46
CC1CCN(CC(O)COc2c(F)cc(Br)cc2F)CC1 (stereo unspecified),2
Cc1ccc(-n2ncc(C(=O)NCCN3CCOCC3)c2NC(=O)c2ccco2)cc1C,-13
COC(=O)c1cc(NC(=O)COc2ccc(Cl)cc2C)cc(C(=O)OC)c1,25
Cc1noc(C)c1S(=O)(=O)N(C)C[C@@H]1Oc2ccc(NC(=O)Nc3cccc4ccccc34)cc2CC(=O)N([C@@H](C)CO)C[C@@H]1C,8
COc1cc(NC(=O)C2CCCO2)c(C(=O)O)cc1OC (stereo unspecified),28
C[C@@H]1CN([C@@H](C)CO)C(=O)c2cccc(NC(=O)Nc3ccccc3)c2O[C@@H]1CN(C)Cc1ccc(C(=O)O)cc1,10
C[C@@H]1CN([C@H](C)CO)C(=O)Cc2cc(NC(=O)Cn3cnnn3)ccc2O[C@@H]1CN(C)Cc1ccc2c(c1)OCO2,11
CCc1cccc(C)c1NC(=O)CSc1nnc(-c2ccccc2)o1,18
COc1ccc(-c2nc(SCC(=O)Nc3cccc(Br)c3)n[nH]2)cc1,13
COc1ccc(S(=O)(=O)N(C)C[C@@H]2Oc3c(NC(=O)C4CCOCC4)cccc3C(=O)N([C@H](C)CO)C[C@@H]2C)cc1,-9
C[C@@H]1CN([C@@H](C)CO)C(=O)c2cccc(NC(=O)NC3CCCCC3)c2O[C@@H]1CN(C)S(=O)(=O)c1ccccc1,28
CSc1nc(C=Nc2cccc(Cl)c2)c(O)n1Cc1cccc(Cl)c1,26
CNC[C@@H]1Oc2ccc(N(C)C)cc2C(=O)N([C@H](C)CO)C[C@@H]1C,32
NC(=O)C1CC(=O)N(c2ccc(OCC(=O)Nc3ccccc3F)cc2)C1 (stereo unspecified),5
COc1ccc(CCNc2oc(-c3ccc(C)cc3)nc2C#N)cc1OC,15
C[C@@H]1CN([C@@H](C)CO)C(=O)c2cc(NC(=O)Cc3ccccc3)ccc2O[C@@H]1CN(C)C(=O)Nc1ccc(C(F)(F)F)cc1,73
C=C(CO)C(=O)O[C@H]1C[C@@]23O[C@@H]2CC/C(=C/[C@H]2OC(=O)C(=C)[C@H]12)CO[C@@H]3O,103*
CS(=O)(=O)CCC(C(=O)N1CCOCC1)N1C(=O)c2cc(Cl)c(Cl)cc2C1=O (stereo unspecified),23
C[C@@H]1CN([C@H](C)CO)C(=O)c2cccc(NS(C)(=O)=O)c2O[C@H]1CN(C)C(=O)Nc1cccc2ccccc12,8
C[C@@H]1CN([C@H](C)CO)C(=O)c2cc(NC(=O)C3CC3)ccc2O[C@@H]1CN(C)Cc1ccc(C(F)(F)F)cc1,-10
CC(=O)/C=C\[C@@H]1[C@@]2(C)CCCC(C)(C)C2CC[C@@]1(C)O (stereo partly specified),0
COc1ccc2c(c1)C(C)(CC#N)C(=O)N2C (stereo unspecified),-1
COc1ccc(S(=O)(=O)N(C)C[C@@H]2Oc3c(NC(=O)C4CCCCC4)cccc3C(=O)N([C@@H](C)CO)C[C@@H]2C)cc1,13
C[C@H]1CN([C@@H](C)CO)C(=O)c2cc(NS(C)(=O)=O)ccc2O[C@H]1CN(C)Cc1ccc(Cl)c(Cl)c1,14
COc1cccc(CNc2ccc3c(c2)ncn3-c2ccccc2)c1OC,42
COc1cc(Cc2nccc3cc(OC)c(OC)cc23)c(NC(=O)c2cccs2)cc1OC,-2
C[C@H](CO)N1C[C@H](C)[C@H](CN(C)Cc2ccccc2)Oc2c(NC(=O)NC3CCCCC3)cccc2C1=O,38
N#Cc1c(SCC(=O)Nc2ccccc2)ncc2cc3ccccc3nc12,110*
C[C@H]1CN([C@@H](C)CO)C(=O)c2cccc(NS(=O)(=O)c3ccccc3)c2O[C@@H]1CN(C)C(=O)NC1CCCCC1,16
COc1ccc(NC(=O)CSc2nc3c(c(-c4cccs4)c2C#N)CN(C)CC3)cc1OC,23
C[C@H]1CN([C@@H](C)CO)C(=O)c2cc(NC(=O)C3CC3)ccc2O[C@H]1CN(C)Cc1ccc(Oc2ccccc2)cc1,4
Cc1ccc(NC(=O)CSc2nnc(N)s2)cc1,15
O=C(NCCCN1CCCC1=O)c1cc(-c2ccccn2)nc2ccc(Br)cc12,-31
O=C(O)CCC(=O)N(Cc1ccccc1)Cc1cn(-c2ccccc2)nc1-c1cccnc1,-4
N#Cc1cc2c(N)c(C(=O)Nc3ccccc3)sc2nc1N,62
COc1ccc(-c2nnc(SCC(=O)Nc3cccc(C(C)=O)c3)n2-c2ccccc2)cc1,-5
C[C@H](CO)N1C[C@H](C)[C@H](CN(C)Cc2ccc(-c3ccccc3)cc2)Oc2ccc(NS(=O)(=O)c3ccccc3)cc2CC1=O,?
C[C@H]1CN([C@@H](C)CO)C(=O)Cc2cc(NC(=O)Nc3cccc4ccccc34)ccc2O[C@@H]1CN(C)Cc1ccncc1,16
C[C@@H]1CN([C@H](C)CO)C(=O)c2cccc(NC(=O)Nc3ccccc3)c2O[C@@H]1CN(C)S(=O)(=O)c1cccs1,23
C[C@H]1CN([C@@H](C)CO)C(=O)Cc2cc(NC(=O)Cc3cn(C)c4ccccc34)ccc2O[C@H]1CN(C)Cc1ccc(C(F)(F)F)cc1,83*
O=C(CCN1CCC(c2cccs2)=N1)c1cccs1,33
Cc1ccn2cc(-c3cccc(NS(=O)(=O)c4cc([N+](=O)[O-])ccc4C)c3)nc2c1,-6
COc1ccc(NC(=O)CNS(=O)(=O)c2c(C)cc(C)cc2C)c(OC)c1,-6
COc1ccc(NC(=O)Nc2cccc3c2O[C@H](CN(C)C(=O)Nc2c(C)noc2C)[C@H](C)CN([C@@H](C)CO)C3=O)cc1,-6
Cc1noc(C)c1NC(=O)Nc1cccc2c1O[C@H](CN(C)Cc1ccc3c(c1)OCO3)[C@@H](C)CN([C@@H](C)CO)C2=O,13
C/C(=C\C=C\C(C)C)CC/C=C(\C)CCOc1c(O)cc2c(c1O)CNC2=O,38
C[C@H]1CN([C@@H](C)CO)C(=O)Cc2cc(NC(=O)NC3CCCCC3)ccc2O[C@H]1CN(C)Cc1ccc(C(=O)O)cc1,4
COc1ccc(CN(C)C[C@H]2Oc3c(NC(=O)Nc4c(C)noc4C)cccc3C(=O)N([C@@H](C)CO)C[C@@H]2C)cc1,-6
C[C@@H]1CCCCO[C@@H](CN(C)C(=O)Nc2ccc3c(c2)OCO3)[C@@H](C)CN([C@H](C)CO)C(=O)c2cc(NC(=O)NC3CCCCC3)ccc2O1,9

The list continues:
Structure,NOMO-1 viab
CC(=O)c1c(C)nn(CC(O)COc2ccc3cc(Br)ccc3c2)c1C (stereo unspecified),53
C[C@H](CO)N1C[C@H](C)[C@H](CN(C)Cc2ccncc2)Oc2ccc(NS(C)(=O)=O)cc2C1=O,-19
C=CCN1C(=O)/C(=C2\SC(=Nc3ccccc3)N(c3ccccc3)C2=O)c2ccccc21,20
O=C(NCCNC(=O)c1cc2ccccc2cc1O)c1cc2ccccc2cc1O,-36
CC1(C)CCc2cc(-c3ccn(S(=O)(=O)c4cccc(C(F)(F)F)c4)n3)ccc2O1,18
COc1ccccc1Nc1nc(N)nc(CSc2nc3ccccc3s2)n1,13
C[C@@H]1CN([C@H](C)CO)C(=O)c2cccc(NS(=O)(=O)c3cn(C)cn3)c2O[C@H]1CN(C)C(=O)NC1CCCCC1,-19
C[C@@H]1CN([C@@H](C)CO)C(=O)Cc2cc(NC(=O)Nc3ccc(F)cc3)ccc2O[C@@H]1CN(C)C,18
CC(C)NC(=O)N(C)C[C@H]1Oc2ccc(NS(=O)(=O)c3ccc(F)cc3)cc2C(=O)N([C@@H](C)CO)C[C@H]1C,2
Cc1nnc(SCC(=O)Nc2cc(Cl)ccc2C)s1,22
O=C(c1cc([N+](=O)[O-])ccc1NCc1cccnc1)N1CCOCC1,-1
C[C@H](CO)N1C[C@H](C)[C@H](CN(C)C)Oc2c(NS(=O)(=O)c3cccs3)cccc2C1=O,27
C[C@@H]1CN([C@H](C)CO)C(=O)c2cc(NS(=O)(=O)c3cccs3)ccc2O[C@@H]1CN(C)CC1CC1,11
CC(=O)Nc1ccccc1SCC(=O)Nc1ccc(C)cc1,34
CC(C)NC(=O)Nc1ccc2c(c1)CC(=O)N([C@@H](C)CO)C[C@H](C)[C@H](CN(C)C(=O)Nc1ccc(F)cc1)O2,-6
COc1ccc(S(=O)(=O)Nc2cccc3c2O[C@H](CN(C)Cc2ccc4c(c2)OCO4)[C@@H](C)CN([C@H](C)CO)C3=O)cc1,-5
CCOC(=O)c1c(NC(=O)COc2ccccc2F)sc2c1CCCC2,15
CNC[C@@H]1Oc2c(NC(=O)Nc3ccccc3)cccc2C(=O)N([C@H](C)CO)C[C@@H]1C,7
OCc1nc2ccccc2n1CCOc1ccc(Cl)cc1,40
